Screening data: PubChem BioAssay, National Center for Advancing Translational Sciences (NCATS)
A488 autofl – A488 region autofluorescence; compound autofluorescence, A488 spectral region, dye equivalency; hits give high values; max dye equivalency, M; hit rate 0.1% among 59,000; AID 591; active = above 10 nM dye equivalent; inconclusive = 1 to 10 nM; inactive = 1 nM or less; about half of its hits are not listed in these tables;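 also: highest value over a series up to 38 µM; compound alone in buffer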
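Read-out: relative fluorescence at 480/540 nm, expressed as Alexa 488 dye-equivalent concentration from a six-point A488 standard included per plate. Conditions: 100 mM Tris, pH 8.0; 15 min incubation, room temperature.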
A647 autofl – A647 region autofluorescence; max dye-equivalent concentration, M; 59,000 tested, under 10 active; Compound fluorescence, A647 channel (570/671 nm), Tris buffer; active means above 1 µM dye equivalent; inconclusive means 0.1 to 1 µM; inactive means 0.1 µM or less;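 also: values scaled relative to a standard on each plate; highest value over a series up to 38 µM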
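Tris 100 mM pH 8.0; cpd + A647 stds pin-transferred; 15 min RT; CCD imager, ex 570/em 671. Output = A647-equivalent conc. per cpd conc.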
Resorufin fluor – compounds fluorescent in resorufin spectral region. max dye-equivalent concentration, M. AID 588. hit rate 0.04% among 59,000. Compound fluorescence, resorufin region 547/598 nm, buffer; hits give high values; active = above 10 nM dye equivalent; inconclusive = 1 to 10 nM; inactive = 1 nM or less; a few of its hits are not listed in these tables; also: highest value over a series up to 38 µM
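Read-out: intrinsic compound fluorescence at ex 547/em 598 nm after 15 min at RT in pH 8.0 Tris (100 mM). Values expressed as resorufin-equivalent concentration from per-plate standard series.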
TSHR ag – agonists of human thyroid stimulating hormone receptor; P16473; HEK293-CNG-TSHR cells (CNG channel as cAMP sensor), membrane potential dye, cAMP; Potency, µM (titrated, usually from 57.1 µM), for inactives: at the highest dose activation, usual class: activators; hit rate 0.48% among 73,000; AID 926; active = well fitted activation curve of enough size with the parental cells flat; inconclusive = any curve in the parental cells; inactive = parental cells flat and receptor cells flat or falling; also: potency is read from the fitted curve at half-maximal effect; % of control where 0% means no effect; weak receptor curves with flat parental cells got no call and are not listed
Target sequence (P16473 whole entry, looked up): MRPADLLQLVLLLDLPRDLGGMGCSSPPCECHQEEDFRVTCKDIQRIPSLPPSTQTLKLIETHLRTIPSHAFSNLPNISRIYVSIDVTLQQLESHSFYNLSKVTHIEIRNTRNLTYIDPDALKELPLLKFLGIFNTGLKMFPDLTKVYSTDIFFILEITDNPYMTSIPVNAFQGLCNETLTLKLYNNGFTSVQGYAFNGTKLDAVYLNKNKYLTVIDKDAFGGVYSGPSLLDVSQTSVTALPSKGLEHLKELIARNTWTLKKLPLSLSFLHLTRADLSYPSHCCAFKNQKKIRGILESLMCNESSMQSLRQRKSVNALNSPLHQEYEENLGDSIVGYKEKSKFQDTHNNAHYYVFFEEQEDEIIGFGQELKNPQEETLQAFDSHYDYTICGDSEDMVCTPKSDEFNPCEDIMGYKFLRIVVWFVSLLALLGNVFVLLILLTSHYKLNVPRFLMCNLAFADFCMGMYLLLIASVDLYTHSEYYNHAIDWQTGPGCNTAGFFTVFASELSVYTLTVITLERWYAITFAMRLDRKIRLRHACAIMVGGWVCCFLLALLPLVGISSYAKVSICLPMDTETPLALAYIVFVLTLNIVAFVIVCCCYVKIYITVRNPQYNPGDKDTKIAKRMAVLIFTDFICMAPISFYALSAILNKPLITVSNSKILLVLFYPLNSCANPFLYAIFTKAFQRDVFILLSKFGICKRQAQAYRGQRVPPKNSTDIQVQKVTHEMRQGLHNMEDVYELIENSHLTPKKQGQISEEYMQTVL
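HEK 293 cells stably expressing TSHR and a cAMP-gated CNG channel; parental CNG-only cells as counterscreen. Cells preloaded 60 min with membrane potential dye plus 100 uM RO 20-1724, then compound 30 min; fluorescence read at 590 nm.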
AID923 – qHTS Assay for Allosteric/Competitive Inhibitors of Caspase-1: Spectroscopic Profiling in AFC Spectral Region | compound fluorescence, AFC spectral region (405/520 nm); almost no hit is shown here | Potency, µM (highest dose often 57.5 µM), for inactives: at the highest dose fluorescence increase, most hits filed as activators | hit rate 1.1% among 75,000; active = well fitted activation curve with a large enough effect; inconclusive = small, poorly fitted or top-dose-only effect;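 also: potency is read from the fitted curve at half-maximal effect; 0% is about no effect; scaled to a free AFC standard on each plate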
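Baseline compound fluorescence (AFC region, 405 nm ex/520 nm em) taken from the intercept of kinetic reads with 50 nM caspase-1 and 5 uM Ac-WEHD-AFC; normalized to an on-plate AFC standard curve; compounds titrated up to 57 uM.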
* = called active by the depositor; i = inactive; ? = inconclusive; · = not tested or not shown; & = joins results of further samples; [ ] = dose if it differs, or a comment.

Below each compound: A488 autofl	A647 autofl	Resorufin fluor	TSHR ag	AID923
#1 CC(C)CCNC(=O)CN(CC1CCCO1)C(=O)CCC(=O)Nc1ccccn1 (centres undefined)
 : i	2.9e-09	i	-6%	-0.9%
#2 CN(C)C(=O)N1CCCC(C(=O)NCc2ccccc2Cl)C1 (centres undefined)
 : i	1.3e-09	i	0%	0.8%
#3 CCc1c(C)nc(Nc2nc(C)c3cc(OC)ccc3n2)[nH]c1=O
 : i	1.3e-09	i	5%	0.3%
#4 CNC(=O)CN1C(=O)CSc2ncccc21
 : ·	·	·	-3%	-1.2%
#5 CCCCCCOc1ccc(C(=O)n2cnc(N)n2)cc1
 : i	2e-08	i	·	·
#6 NC(=O)C1CCN(CC(=O)N2c3ccccc3CCc3ccccc32)CC1
 : i	4.8e-08	i	1%	0.7%
#7 Cc1ccc(OCCN2CCCCCC2)c(C)c1
 : ·	·	·	3%	0.3%
#8 CCC(c1nnnn1Cc1ccc2c(c1)OCO2)N1CCN(c2ccc(F)cc2)CC1 (centres undefined)
 : i	1e-09	i	?	0.9%
#9 Cc1nc(N2CCOCC2)c2nc(-c3ccccc3)n(CCCN3CCCCC3C)c2n1 (centres undefined)
 : ·	·	·	?	-0.3%
#10 Cc1n[nH]c(C)c1S(=O)(=O)N1CCCC(C(=O)Nc2nccs2)C1 (centres undefined)
 : i	4.9e-09	i	0%	0.5%
#11 CCCCCCCC(=O)OCC(COC(=O)CCCCCCC)OC(=O)CCCCCCC
 : ·	·	·	3%	-0.4%
#12 CC(=O)Nc1cccc(NC(=O)C2CCCN2C(=O)Nc2ccc(C)cc2)c1 (centres undefined)
 : i	2.5e-08	i	-2%	0.1%
#13 Cc1cc(=O)[nH]c(/N=C(/NC(=O)c2ccccc2)Nc2ccc3c(c2)OCCO3)n1
 : i	1e-09	i	3%	-0.9%
#14 Cc1nnc(NC(=O)CSc2nnc(Cc3cccn3C)n2C)s1
 : ·	·	·	?	-6.8%
#15 Cc1ccc(C(=O)/C=C/Nc2cccc(O)c2)cc1
 : i	1.3e-08	i	·	·

Below each compound: A488 autofl	A647 autofl	Resorufin fluor	TSHR ag	AID923
#16 Cc1ccc(N2CCN(CC(O)COC3CCCCC3)CC2)cc1 (centres undefined)
 : i	3.9e-08	i	10%	-2.7%
#17 O=S(=O)(c1ccc(NC2CCCCC2)cc1)N1CCOCC1
 : i	1.3e-08	i	5%	-1.0%
#18 c1ccc(C2CC(c3cccs3)n3nnnc3N2)cc1 (centres undefined)
 : i	1.9e-08	i	23%	0.3%
#19 CCOC(=O)c1ccccc1NC(=O)CSc1nnc(COc2ccccc2)n1CC
 : i	6.8e-09	i	?	0.4%
#20 CN=C(c1ccco1)n1c(=S)nc(-c2ccco2)n(C)c1=S
 : i	8.2e-08	i	·	·
#21 Cc1cc(O)c(C(C)C)cc1NS(=O)(=O)c1ccccc1
 : i	1e-09	i	20%	3.0%
#22 CS(=O)(=O)N1CCN(C(=O)Cc2cccs2)CC1
 : i	1e-09	i	-7%	0.9%
#23 COC(=O)c1cc(COc2ccc3oc(C)c(C(=O)OC)c3c2)c(C)o1
 : ·	·	·	?	0.5%
#24 CCc1ccc(-c2nnn(CCC(=O)OC)n2)cc1
 : i	1e-09	i	?	-1.4%
#25 COc1ccc2[nH]c(=O)c(CN(Cc3cccs3)Cc3nnnn3C(C)(C)C)cc2c1
 : i	8.4e-09	i	?	-0.1%
#26 CC(C)CC(NS(=O)(=O)c1ccc2c(c1)oc(=O)n2C)C(=O)NC1CCCc2ccccc21 (centres undefined)
 : ·	·	·	1%	-0.5%
#27 Cc1cc(NC(=O)CC2CCCC2)n(-c2nc3ccccc3[nH]2)n1
 : i	5.7e-08	i	?	0.3%
#28 O=c1c(F)cn(C2CCCO2)c(=O)n1Cc1ccccc1Cl (centres undefined)
 : i	6.7e-08	i	·	·
#29 c1ccc(-c2nn3c(C4CCCCC4)nnc3s2)cc1
 : i	8.9e-09	i	·	·
#30 Cc1ccc(-c2nc(CS(=O)CC(=O)NCCN3CCCC3)c(C)o2)cc1 (centres undefined)
 : ·	·	·	3%	-0.8%

Below each compound: A488 autofl	A647 autofl	Resorufin fluor	TSHR ag	AID923
#31 CC(=O)NS(=O)(=O)c1ccc(NC(=O)c2ccccc2F)cc1
 : ·	·	·	0%[11.4 µM]	1.3%
#32 N#CCC(=O)Nc1sc2c(c1C(N)=O)CCCC2
 : ·	·	·	?	-1.1%
#33 Cc1ccc(Nc2nc(OC(C(F)(F)F)C(F)(F)F)nc(N3CCOCC3)n2)cc1
 : ·	·	·	16%	-1.0%
#34 Nn1c(SCC(=O)Nc2ccc(F)cc2)nnc1C1CCCCC1
 : i	4.2e-09	i	-5%	-0.4%
#35 O=C(NCc1ccco1)c1ccc(Br)s1
 : ·	·	·	1%	3.6%
#36 O=C(NCc1cccc(Cl)c1)c1ccc2c(c1)OCO2
 : i	2.1e-08	i	0%	1.5%
#37 COC(=O)c1c(C)cc(OC(C)=O)c(C)c1OC(C)=O
 : ·	·	·	14%	1.0%
#38 CCc1nc(N2CCCC(C)C2)c2oc3ccccc3c2n1 (centres undefined)
 : i	1.2e-08	i	?	1.2%
#39 COc1cccc(Oc2nc3ncn(Cc4ccccc4)c3c(=O)n2C)c1
 : i	3.6e-09	i	-3%	0.4%
#40 O=C(c1ccncc1)N1CCC2(CCN(Cc3cc(C(F)(F)F)cc(C(F)(F)F)c3)CC2)CC1
 : i	1.8e-08	i	?	2.0%
#41 O=C(N1CCCC1)n1c(Cc2ccccc2)nc2ccccc21
 : i	9.6e-09	i	·	-0.9%
#42 c1nc(NCC2(N3CCOCC3)CCCCC2)c2ccsc2n1
 : i	8.6e-09	i	11%	1.5%
#43 COC(=O)[C@@]1(Cc2ccc(OC)cc2)[C@H]2c3cc(C(=O)N4CCCC4)n(Cc4ccc(S(C)(=O)=O)cc4)c3C[C@H]2CN1C(=O)c1ccccc1
 : ·	·	·	?	4.0%
#44 C[C@H](CCC(=O)O)[C@H]1CC[C@@H]2[C@H]3[C@@H](C[C@@H](O)[C@]21C)[C@]1(C)CC[C@H](O)C[C@@H]1C[C@@H]3O
 : i	1e-09	i	0%[11.4 µM]	-2.4%[11.5 µM]
#45 O=C1CC(Sc2nnc(-c3ccccc3O)o2)C(=O)N1c1ccccc1 (centres undefined)
 : i	8.4e-09	i	14%	2.1%

Below each compound: A488 autofl	A647 autofl	Resorufin fluor	TSHR ag	AID923
#46 COc1ccc(NC(=O)c2cc(OC)c(OC)cc2OC)c(S(=O)(=O)N2CCOCC2)c1
 : i	4.1e-09	i	5%	2.0%
#47 CCOc1ccccc1NC(=O)CN(c1nccs1)S(=O)(=O)c1ccc(N)cc1
 : i	1e-09	i	3%	0.6%
#48 CC(NCc1ccco1)C(=O)N1CCc2ccccc2C1 (centres undefined)
 : i	2.4e-08	i	8%	-1.1%
#49 CCn1c(SCC(=O)NCc2ccco2)nc2c(c1=O)SC(C)C2 (centres undefined)
 : i	1.9e-08	i	18%	1.0%
#50 COc1c(F)c(F)c(C(=O)Nc2ccc3oc(-c4ccncc4)nc3c2)c(F)c1F
 : i	1e-09	i	3%	-0.3%
#51 CC(=O)NCCOC(=O)Nc1cccnc1
 : ·	·	·	-1%	-0.3%
#52 Cc1ccc(S(=O)(=O)N2CCOCC2)cc1C(=O)NCc1cn2ccsc2n1
 : i	1e-08	i	-2%	-2.5%
#53 Cc1ccc2nc(C(F)OC(F)(F)F)[nH]c2c1 (centres undefined)
 : i	2.2e-08	i	8%	-3.7%
#54 COc1ccc(C(=O)NCC(c2cccnc2)N2CCN(c3ccccc3OC)CC2)cc1OC (centres undefined)
 : ·	·	·	7%	-0.7%
#55 O=C(Nc1nnc(COc2ccc(F)cc2)s1)c1cccs1
 : i	3.7e-09	i	-5%	0.2%
#56 O=C(c1ccco1)N1CCN(C(c2ccccc2Cl)c2nnnn2Cc2cccs2)CC1 (centres undefined)
 : i	6.7e-08	i	?	-2.3%
#57 N[C@@H](Cc1cccnn1)C(=O)O
 : i	1e-09	i	-1%[11.4 µM]	1.6%[11.5 µM]
#58 Cc1nn(-c2ccccc2)c2sc(C(=O)OCC(=O)N3CCCCC3)cc12
 : i	1e-08	i	12%	-0.2%
#59 CCN(CC)S(=O)(=O)c1ccc(-c2nnc(SCC(=O)N3CCOCC3)o2)cc1
 : i	2.7e-09	i	7%	0.2%
#60 CCc1nc(SCc2cc(Cl)ccc2OC)n[nH]1
 : i	7e-09	i	0%	-0.4%

Below each compound: A488 autofl	A647 autofl	Resorufin fluor	TSHR ag	AID923
#61 Nc1ccc2c(c1)COc1ccccc1O2
 : i	1e-09	i	-24%	1.3%
#62 COc1cccc2sc(NC(=O)c3ccc(S(=O)(=O)N4CCOCC4)cc3)nc12
 : i	2.1e-08	i	-5%	0.3%
#63 COc1ccc(S(=O)(=O)N(CC(=O)O)Cc2ccccc2)cc1OC
 : ·	·	·	3%	-2.6%
#64 CCCCC(C=O)CC (centres undefined)
 : ·	·	·	?	2.4%
#65 Cc1ccc(C2C(C(=O)c3cccs3)=C(O)C(=O)N2CCN2CCOCC2)o1 (centres undefined)
 : i	4.8e-08	i	1%	4.3%
#66 Cc1ccc(-c2nnn(CCC(=O)N3CCCCC3C)n2)cc1 (centres undefined)
 : i	1.9e-08	i	?	-0.7%
#67 c1cnc(N2CCN(Cc3ccc4c(c3)OCO4)CC2)nc1
 : i	3e-08&1e-09	i	14%	-2.5%
#68 c1ccc(-c2n[nH]c3ccccc23)cc1
 : i	2.1e-08	i	-4%	0.6%
#69 CC(=O)NCCOc1ccc(C(=O)O)cc1
 : i	1.9e-08	i	?	-0.5%
#70 CCC(=O)N1c2ccc(S(=O)(=O)CCC(=O)N3CCN(c4ccccc4)CC3)cc2CC1C (centres undefined)
 : i	5.4e-09	i	0%	0.3%
#71 CCCc1nc(-c2ccccc2O)n(-c2ccccc2)n1
 : i	5.1e-09	i	4%	0.4%
#72 COc1cc2c(cc1OC)C(C(=O)O)C(c1ccc(C)o1)N(C)C2=O (centres undefined)
 : i	1.6e-08	i	4%[11.4 µM]	2.8%
#73 CC(C)O
 : ·	·	·	-1%	1.6%
#74 Cc1ccc(OCC(O)CNS(=O)(=O)c2ccccc2C(=O)N2CCCCC2)cc1 (centres undefined)
 : i	1.7e-09	i	-9%	-0.1%
#75 O=S(=O)(c1ccccc1)N1CCC[C@@]2(CCN(Cc3cc(C(F)(F)F)cc(C(F)(F)F)c3)C2)C1
 : i	2e-08	i	9%	-2.2%

Below each compound: A488 autofl	A647 autofl	Resorufin fluor	TSHR ag	AID923
#76 COc1cc(-c2nn3c(-c4cccnc4)nnc3s2)cc(OC)c1OC
 : i	1e-09	i	·	·
#77 CCCC1C2CN(C(C)=O)CC=C2C(C#N)=C(N)C1(C#N)C#N (centres undefined)
 : i	4.6e-08	i	-1%	10%
#78 CCCN1C(=O)C2(/C(=C(\O)c3ccc4c(c3)OCCO4)C(=O)C(=O)N2CCCOC)c2ccccc21 (centres undefined)
 : i	1e-09	i	4%	1.1%
#79 CCCCNC(=O)c1cc(-c2ccc(OC)cc2)on1
 : i	1.6e-08	i	0%	1.2%
#80 O=C(c1ccco1)N1CCN(C(c2ccccc2)c2nnnn2Cc2cccs2)CC1 (centres undefined)
 : i	5.5e-09	i	16%	0.0%

Entries of single compounds, looked up by structure. Values in the order: A488 autofl | A647 autofl | Resorufin fluor | TSHR ag | AID923
Shown for COc1ccc2[nH]c(=O)c(CN(Cc3cccs3)Cc3nnnn3C(C)(C)C)cc2c1 → i | 8.4e-09 | i | ? | -0.1%
Shown for O=S(=O)(c1ccc(NC2CCCCC2)cc1)N1CCOCC1 → i | 1.3e-08 | i | 5% | -1.0%
Shown for NC(=O)C1CCN(CC(=O)N2c3ccccc3CCc3ccccc32)CC1 → i | 4.8e-08 | i | 1% | 0.7%

These rows are one share of the data; rates above refer to the full screens.
